# GLA inh pH 4.5: alpha-galactosidase A (human) inhibition, pH 4.5; P06280; purified enzyme, 4-MU-alpha-Gal fluorescence, pH 4.5; activity change, negative = inhibition, % at 105 µM; 230,000 tested, under 10 active; AID 1467; inconclusive = small, poorly fitted or top-dose-only inhibition, or a rising curve; inactive = flat fitted curve, though single readings scatter; no compound was filed as active;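 note: 0% = full activity with enzyme and -100% = basal without enzyme; dose as in the result columns while the protocol names 77 µM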
# Rango release inh: inhibition of RanGTP-driven Rango-importin beta dissociation; O95149+P62826; Biochemical FRET Rango-importin beta, RanGTP-induced dissociation; Potency, µM (highest dose often 46.1 µM), for inactives: at the top dose activity change, negative = inhibition; 340,000 compounds, 0.071% hits; AID 540253; active means falling FRET ratio curve, often poorly fitted, with flat reads before Ran was added; inconclusive means other falling curves, or compound fluorescence or quenching; inactive means flat or rising ratio curve;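 note: potency is the fitted concentration of half-maximal effect; % of control where 0% means no effect; nearly all actives have a fitted effect of over 45% in size; -100% = wells without RanGTP and RCC1; the record marks most hits as doubtful in a second field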
#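 Compounds sat 5 min at room temperature with 0.1 uM Rango biosensor plus 0.25 uM importin beta, then FRET pre-read. RanGTP-RCC1 (0.6 uM Ran, 2mM GTP, 0.2 uM RCC1) added for 45 min, and the CFP/YFP post-read measured blocked complex dissociation.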
# Rango complex inh: prevents formation of the Rango-importin beta complex; Q14974; Rango CFP/YFP FRET sensor + importin beta, 45 min; Potency, µM (titrated, usually from 92.2 µM), for inactives: at the top dose inhibition of complex formation; 340,000 compounds, 0.031% hits; AID 540263; active = rising FRET ratio curve, often small or poorly fitted; inconclusive = mostly compound fluorescence or quenching in the first reads; inactive = flat curves in all reads;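 note: potency is the fitted concentration of half-maximal effect; 0% = DMSO wells and 100% = buffer wells lacking importin beta; nearly all actives have a fitted effect of over 15% in size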
# Target sequence (Q14974 whole entry, looked up): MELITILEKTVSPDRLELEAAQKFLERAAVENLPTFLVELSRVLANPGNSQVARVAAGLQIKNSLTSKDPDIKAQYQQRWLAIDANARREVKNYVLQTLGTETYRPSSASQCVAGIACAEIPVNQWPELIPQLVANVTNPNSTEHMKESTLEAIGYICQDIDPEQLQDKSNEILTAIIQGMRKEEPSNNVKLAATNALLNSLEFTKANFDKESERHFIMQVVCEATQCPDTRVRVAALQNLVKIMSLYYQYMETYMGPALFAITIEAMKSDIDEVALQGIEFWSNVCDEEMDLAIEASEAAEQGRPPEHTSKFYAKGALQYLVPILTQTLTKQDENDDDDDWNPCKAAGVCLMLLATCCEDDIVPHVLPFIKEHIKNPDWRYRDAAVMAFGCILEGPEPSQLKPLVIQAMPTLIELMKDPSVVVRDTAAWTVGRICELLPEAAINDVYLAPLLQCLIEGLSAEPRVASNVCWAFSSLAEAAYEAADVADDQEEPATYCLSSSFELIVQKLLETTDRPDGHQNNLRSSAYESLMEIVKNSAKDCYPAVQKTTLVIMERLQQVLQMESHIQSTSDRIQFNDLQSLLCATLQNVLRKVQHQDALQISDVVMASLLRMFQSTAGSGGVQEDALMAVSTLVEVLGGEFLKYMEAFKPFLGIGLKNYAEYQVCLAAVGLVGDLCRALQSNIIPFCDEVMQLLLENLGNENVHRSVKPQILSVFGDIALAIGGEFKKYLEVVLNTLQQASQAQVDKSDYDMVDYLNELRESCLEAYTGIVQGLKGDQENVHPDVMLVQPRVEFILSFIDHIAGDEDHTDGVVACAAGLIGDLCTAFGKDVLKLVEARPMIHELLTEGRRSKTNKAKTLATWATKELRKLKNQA
#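 FRET biosensor (snurportin 1 IBB flanked by EYFP and cerulean), 50 nM, with compound 5 min, then 0.125 microM importin beta in PBS, 1 mM DTT, 0.02% Tween-20, 0.1% BSA. CFP/YFP ratio read after 45 min at room temperature; pre-read flags interference.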
# miR-21 reporter: raises the signal of a miR-21 reporter; HeLa miR-21 FLuc reporter, luciferase, 48 h; Potency, µM (highest dose often 38.3 µM), for inactives: at the highest dose reporter change, positive = more light; 340,000 tested, under 10 active; active = well fitted rising curve with a large enough effect; inconclusive = small, poorly fitted or top-dose-only effect; inactive = no such curve, though single readings can be large or run the other way;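 note: % of control where 0% means no effect; miR-21 action dims this reporter so a rising signal means less miR-21 action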
#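 Luminescence from a firefly luciferase reporter carrying a miR-21 binding site downstream, stably expressed under a CMV promoter in HeLa cells that make miR-21 endogenously, reports miRNA modulation after 48 h compound exposure up to approximately 40uM final.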
# * hit, by the source's call; ? = inconclusive; · = no result given. The list is partial. The share of hits here may be higher or lower than overall.
Rango complex inh | miR-21 reporter | Rango release inh | GLA inh pH 4.5 | compound
1.3% | -2% | -13% | 5 | c1ccc(-c2nnc3n2NC(c2ccc4c(c2)OCO4)S3)cc1 (centres undefined)
-4.5% | -1% | 2% | 10 | O=C(OC(C(=O)NC1CCCC1)c1ccccn1)c1cccs1 (centres undefined)
-0.2% | -8% | 1% | -11 | COc1ccc(N2C(N)=C(C#N)C(c3ccsc3)C3=C2CCCC3=O)c(OC)c1 (centres undefined)
? | -1% | -24% | 6 | COc1ccc(OC)c(NC(=O)COC(=O)c2cc3c(s2)CCC3)c1
-3.0% | -5% | 1% | · | COc1cccc(CN2CCN(Cc3cc4ccccc4o3)CC2CCO)c1 (centres undefined)
-2.8% | 13% | 2% | 2 | CCC(C)(C)n1nnnc1CN(Cc1ccc(Cl)cc1)Cc1ccco1
0.2% | -15% | -12% | · | COC(=O)CN(C)C(=O)c1ccc(OC)c(OC2CCN(C(C)C)CC2)c1
-3.1% | -11% | 6% | -6 | O=C(Cn1nnc(N2CCCCC2)n1)c1ccc(Cl)c(Cl)c1
2.4% | 0% | 7% | · | CCc1ccccc1N(CC(=O)NC(C)c1ccccc1)S(C)(=O)=O (centres undefined)
-0.2% | -11% | -11% | -10 | COc1cc(OC)cc(C(=O)Nc2ccccc2N2CCOCC2)c1
0.3% | · | 2% | · | COCCCN1C(=O)c2ccc(C(=O)OCC(=O)N3CCN(c4ccccc4)CC3)cc2C1=O
-2.1% | 2% | -5% | -19 | COc1cc(CN2CCN(Cc3ccc(C)cc3)CC2)c([N+](=O)[O-])cc1OC
1.0% | · | 5% | · | C[C@H](CO)N1C[C@H](C)[C@@H](CN(C)S(=O)(=O)c2ccccc2)Oc2ccc(NC(=O)Nc3ccc(C(F)(F)F)cc3)cc2C1=O
-3.1% | -6% | 14% | -6 | CC1(C)CC2CC(C)(CN2C(=S)NC(=O)c2ccccc2Cl)C1 (centres undefined)
-0.5% | -8% | 4% | 2 | COc1ccc(-c2cc(C(F)(F)F)nc(NCc3ccco3)n2)cc1OC
5.4% | -29% | -3% | · | C/C(=N\NC(=O)C1CC1)c1ccc(C)c(C)c1
-3.5% | · | 0% | · | COc1ccc(Br)cc1CNC(=O)C1CCC(=O)N1C(C)C (centres undefined)
0.1% | -1% | 22% | -3 | CCN(CC)C(=O)C(=O)c1cn(CC(=O)NCC2CCCO2)c2ccccc12 (centres undefined)
1.9% | 15% | 0% | · | COc1cc2ncc(S(=O)(=O)c3ccccc3)c(N3CCCC(C)C3)c2cc1OC (centres undefined)
2.1% | -7% | 24% | ? | CSc1cccc(NC(=O)N2CCN(C)CC2)c1
-4.4% | · | 11% | · | CCOc1ccc(S(=O)(=O)Nc2cccc(C(=O)NCCCN3CCCC3=O)c2)cc1
5.2% | · | 2% | · | CCN(CC(=O)Nc1ccccc1C(F)(F)F)C(=O)CCSc1ccc(F)cc1
-1.9% | -28% | -12% | 6 | CCOc1ccc(-c2nnc(SCC(=O)N3CCOCC3)o2)cc1
? | 1% | -28% | 11 | COc1ccc(OC)c(/C=C/C(=O)OCC(=O)Nc2ccc(Cl)c(S(=O)(=O)N(C)C)c2)c1
5.3% | · | 28% | · | O=C(O)CSc1nc2ccc(Br)cc2[nH]1
-1.1% | · | 7% | · | Cc1cnc(C(=O)OC(C)C(=O)c2c(C)[nH]c3ccccc23)cn1 (centres undefined)
-0.1% | 0% | -14% | -1 | Cn1cccc1Cc1nnc(SCC(=O)NC2CCCC2)n1-c1ccc(F)cc1
? | -1% | -26% | -2 | COc1ccc(C2C3=C(CCCC3=O)Nc3nc(C(F)(F)F)nn32)c(OC)c1OC (centres undefined)
? | -3% | ? | -3 | CCOc1ccc(-n2c(SCC(N)=O)nc3sc4c(c3c2=O)CCN(C)C4)cc1
0.1% | -5% | 28% | 3 | CCSc1c(-c2ccccc2)nc2c(C)cccc2c1C(=O)O

# Remaining list, next part
Rango complex inh | miR-21 reporter | Rango release inh | GLA inh pH 4.5 | compound
0.4% | 10% | 1% | -8 | Cc1ccnc(N/C=C(/NC(=O)c2ccccc2)C(=O)N/N=C\c2ccc(Cl)cc2)n1
-3.1% | -7% | 4% | -3 | O=C(NC1CCCCC1)N1CCCCCC1
-1.6% | -2% | 6% | -2 | CCNc1ccc(C(=O)OCC(=O)N2c3ccccc3NC(=O)C2(C)C)cc1[N+](=O)[O-]
-3.2% | 1% | -5% | 2 | CCCOc1ccc(N2C(=O)CC(N3CCN(CCN=CC4C(=O)CC(C)(C)CC4=O)CC3)C2=O)cc1 (centres undefined)
2.3% | -4% | 2% | 8 | COc1cc(Cl)c(C)cc1NC(=O)[C@@H]1CCCN1C(=O)c1cccs1
0.0% | 1% | 0% | -9 | CS(=O)(=O)N(CC(=O)N/N=C/c1cccs1)c1cccc(Cl)c1Cl
? | -32% | ? | -4 | CCN1CCc2nc(NC(=O)c3ccc4c(c3)OCCO4)sc2C1
-0.5% | · | 6% | · | NC(=O)c1ccc(NS(=O)(=O)c2ccc(Br)s2)cc1
-0.1% | -3% | 5% | -5 | CC(=O)c1ccc(NC(=O)CCCN2C(=O)/C(=C/C(C)=C/c3ccccc3)SC2=S)cc1
0.0% | -5% | -26% | -10 | Cc1ccc(C(=O)COC(=O)c2n[nH]c(=O)c3ccccc23)cc1
1.2% | -3% | 13% | 2 | CCC(C)(C)NC(=O)C(c1ccncc1)N(C(=O)c1sc(C)nc1C)c1ccc(F)cc1 (centres undefined)
-2.0% | -2% | -1% | -14 | NC(=O)CSc1nc2ccccc2nc1SCC(N)=O
0.3% | -11% | 12% | -16 | Cc1cc(C)n2nc(SCc3ncc(-c4ccccc4)o3)nc2n1
1.4% | -7% | 43% | · | O=C(NNC(=S)NC(=O)c1ccc(Br)cc1)c1cccc([N+](=O)[O-])c1
2.1% | -12% | 19% | 0 | Cc1nn2c(NCCN(C)C)c3c(nc2c1-c1ccccc1)CCCC3
0.0% | 10% | 0% | -27 | CC(C)(CNC(=O)c1ccc([N+](=O)[O-])c(Cl)c1)CNC(=O)c1ccc([N+](=O)[O-])c(Cl)c1
-3.3% | 0% | 0% | -21 | COc1cc(/C=N/n2cnnc2)ccc1OCC(=O)N1CCOCC1
-6.5% | 23% | ? | -12 | CC(C)(C)c1ccc(C(=O)N2CCCN(c3ccc([N+](=O)[O-])cn3)CC2)cc1
-5.4% | · | -8% | · | COc1ccc(S(=O)(=O)N(C)C)cc1NC(=O)C1CCN(c2ncnc3sc(C)c(C)c23)CC1
0.4% | -8% | 10% | -1 | CC(C)CC(=O)NC(=S)Nc1nc(-c2cccc3ccccc23)cs1
2.3% | -5% | -14% | 6 | CCN1CCCC1CNC(=O)CCNC(=O)c1cc(OC)c(OC)c(OC)c1 (centres undefined)
2.0% | -6% | -9% | -4 | CC1CC(c2ccccc2)n2nc(NC(=O)CCc3ccccc3)nc2N1 (centres undefined)
-1.5% | -1% | -16% | 1 | Cc1oc(S(=O)(=O)N2CCOCC2)cc1C(=O)Nc1ccc(F)cc1
0.3% | -1% | 12% | · | Cn1c(CNC(=O)C(Cc2ccccc2)NC(=O)c2ccccc2)cc(=O)n(C)c1=O (centres undefined)
-1.5% | -1% | -4% | 2 | Cc1nnc2sc(-c3ccc(-c4ccc(Cl)c(C(F)(F)F)c4)o3)nn12
-0.7% | 1% | -5% | · | Nc1nc(SCCO)[nH]c(=O)c1NC(=O)c1ccc(Br)o1
1.6% | -7% | 0% | -2 | COC(=O)c1sccc1NC(=O)CC1C(=O)NCCN1C(=O)Nc1ccccc1 (centres undefined)
-1.1% | · | -12% | · | COc1ccc(-c2sc3ccc(N4CCOCC4)cc3c2C#CCCO)cc1
2.0% | -17% | -7% | · | O=C(N/N=C/c1ccccc1O)NC12CC3CC(CC(C3)C1)C2
-0.8% | 16% | -2% | · | COc1ccc(-n2nc(C(=O)NCC(=O)NC3CCCC(C)C3C)c3ccccc3c2=O)cc1 (centres undefined)

# (more compounds)
Rango complex inh | miR-21 reporter | Rango release inh | GLA inh pH 4.5 | compound
4.3% | · | -21% | · | Cc1ccc2nc(SCC(=O)NCc3ccco3)nc(=O)n2c1
3.7% | -4% | 2% | 7 | O=C(NCc1cccs1)C(=O)c1cn(CC(=O)N2CCOCC2)c2ccccc12
-0.1% | -6% | -14% | · | CCc1nn(C(CC)C(=O)NCCCc2ccccc2)c(=O)c2cc3occc3n12 (centres undefined)
-0.1% | 0% | 3% | · | Cc1ccc[n+](C(C)C(=O)c2ccc(Cl)cc2)c1 (centres undefined)
0.1% | 2% | 19% | · | CC(Nc1nc(=S)nc(Nc2ccc(F)cc2)[nH]1)c1ccccc1 (centres undefined)
-14% | -10% | 1% | -8 | O=C(Cn1cc([N+](=O)[O-])cn1)NCC1CCCO1 (centres undefined)
-0.7% | 3% | -5% | -13 | O=C(COC(=O)CNC(=O)c1ccc(F)cc1)Nc1cccc(S(=O)(=O)N2CCCC2)c1
5.9% | · | -8% | · | CC(C)(C)c1ccc(S(=O)(=O)N2CCN(CC(O)COCC3CCCO3)CC2)cc1 (centres undefined)
-8.3% | -14% | -7% | 4 | O=C(OCC#CCSc1nnc(-c2ccccc2)o1)c1cccs1
-1.3% | -8% | 9% | 0 | CC(/C=N\NC(=O)CN1CCN(Cc2ccccc2)CC1)=C\c1ccco1
-0.7% | 4% | 15% | 3 | CCOC(=O)CSc1n[nH]c(NC(C)=O)n1
? | ? | ? | 8 | COc1ccc(N=Cc2cc3c(cc2O)OC(N)=C(C#N)C3c2ccccc2)cc1 (centres undefined)
-2.1% | 0% | 2% | -3 | O=C(CCC(=O)Nc1nnc(C2CCCCC2)s1)NCc1ccccc1
2.8% | · | 65% | · | Cc1cc(Cl)ccc1NC(=O)CN1C(=O)C(=O)N(C2CCCC2)C1=O
-0.2% | 1% | 1% | 1 | COc1ccc(OCCn2cc(/C(N)=N/O)c3ccccc32)cc1
1.1% | -1% | 6% | · | CC1CCCCN1S(=O)(=O)c1csc(C(N)=O)c1 (centres undefined)
5.0% | -27% | -9% | 0 | CCOC(=O)c1c(C)n(C)c2cc(CN(C)C)c(O)c(S(=O)(=O)c3ccccc3)c12
? | 10% | ? | -21 | CC1(C)OC2OC(C(=O)N/N=C/c3cc(Br)ccc3O)C3OC(C)(C)OC3C2O1 (centres undefined)
-4.5% | 0% | -1% | 9 | COC(CNC(=O)c1cccc(-n2c(=S)[nH]c3cc(Cl)ccc3c2=O)c1)OC
3.1% | 12% | 28% | -7 | COc1ccc(/C=N/NC(=O)CCSc2nc3ccccc3s2)cc1
-3.5% | · | 2% | · | CCc1noc(C)c1C(=O)Nc1nc(-c2ccccc2)c(C(C)=O)s1
4.5% | 7% | 21% | 6 | CCOC(=O)c1c(C)c(C(=O)Nc2cc(OC)ccc2OC)c(C)n1CC
-2.4% | 3% | 8% | -21 | Cc1ccc(NS(=O)(=O)c2ccc(NC(=O)c3cccs3)cc2)cc1
1.7% | 2% | 0% | · | CC(C)N1CCN(S(=O)(=O)c2ccc3ccccc3c2)CC1
-1.1% | -21% | -1% | 6 | O=C1CSC(=S)N1/N=C/C=C/c1ccccc1
3.6% | -48% | 14% | 9 | CSc1ncccc1C(=O)Nc1nc2ccc(F)cc2s1
4.5% | -14% | 2% | · | CCCCCCCOc1ccc(C(=O)Nc2cccnc2)cc1
0.8% | -12% | 7% | · | Cc1[nH]n(-c2ccccc2)c(=O)c1N=Nc1ccc(C(=O)O)cc1
? | 21% | -17% | ? | Cc1cc(C)c2nc(NNC(=O)c3ccc(S(=O)(=O)N4CCCCC4)cc3)sc2c1

# Reprinted at random: 6 compounds from above
Rango complex inh | miR-21 reporter | Rango release inh | GLA inh pH 4.5 | compound
-0.1% | -6% | -14% | · | CCc1nn(C(CC)C(=O)NCCCc2ccccc2)c(=O)c2cc3occc3n12 (centres undefined)
-2.1% | 0% | 2% | -3 | O=C(CCC(=O)Nc1nnc(C2CCCCC2)s1)NCc1ccccc1
4.3% | · | -21% | · | Cc1ccc2nc(SCC(=O)NCc3ccco3)nc(=O)n2c1
-0.7% | 4% | 15% | 3 | CCOC(=O)CSc1n[nH]c(NC(C)=O)n1
3.6% | -48% | 14% | 9 | CSc1ncccc1C(=O)Nc1nc2ccc(F)cc2s1
2.8% | · | 65% | · | Cc1cc(Cl)ccc1NC(=O)CN1C(=O)C(=O)N(C2CCCC2)C1=O
